Source: PubChem
AF4-AF9 inh = inhibitors of AF4 peptide binding to AF9, primary screen, biochemical, AlphaScreen, biotin-AF4 peptide, FLAG-AF9, single point; inhibition, % at 10 µM; 350,000 tested, 0.47% active; Protein AF-9 (Homo sapiens), P42568; AID 651704, 2012;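 active = every replicate reaching a set inhibition limit, whatever the replicate mean, cut at about 25% in these data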;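 note: 0% = plate neutral control median and 100% = total signal loss; the record names both 10 and 1 µM as test concentration; the first replicate is given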
Target sequence (P42568 whole entry, looked up): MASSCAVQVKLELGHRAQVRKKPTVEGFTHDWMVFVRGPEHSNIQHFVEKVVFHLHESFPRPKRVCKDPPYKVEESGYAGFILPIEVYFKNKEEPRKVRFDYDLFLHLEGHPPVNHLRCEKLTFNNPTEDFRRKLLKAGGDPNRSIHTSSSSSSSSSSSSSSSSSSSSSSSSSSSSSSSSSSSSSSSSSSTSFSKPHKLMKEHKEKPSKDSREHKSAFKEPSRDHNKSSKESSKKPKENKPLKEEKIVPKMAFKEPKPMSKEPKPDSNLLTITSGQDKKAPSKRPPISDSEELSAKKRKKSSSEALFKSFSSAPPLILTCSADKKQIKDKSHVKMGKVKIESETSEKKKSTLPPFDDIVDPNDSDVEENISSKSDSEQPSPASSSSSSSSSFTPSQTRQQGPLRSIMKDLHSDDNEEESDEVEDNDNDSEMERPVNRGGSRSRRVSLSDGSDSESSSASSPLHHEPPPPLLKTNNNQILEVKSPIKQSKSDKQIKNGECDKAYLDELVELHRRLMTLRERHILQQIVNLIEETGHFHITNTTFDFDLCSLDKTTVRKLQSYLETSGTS
FGF22 binding = binders of human FGF22 protein, primary screen, FGF22 synaptogenesis inhibitor project, biophysical, thermal shift, single point; calls only at 9.99 µM; Fibroblast growth factor 22 (Homo sapiens), Q9HCT0; 340,000 tested, 1.5% active; recombinant FGF22 thermal shift, SYPRO orange fluorescence; percent of sucrose octasulfate shift, DMSO zero;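 active = melting point raised past a set limit in the mean and every replicate; three in four hits are not shown here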
Target sequence (Q9HCT0 whole entry, looked up): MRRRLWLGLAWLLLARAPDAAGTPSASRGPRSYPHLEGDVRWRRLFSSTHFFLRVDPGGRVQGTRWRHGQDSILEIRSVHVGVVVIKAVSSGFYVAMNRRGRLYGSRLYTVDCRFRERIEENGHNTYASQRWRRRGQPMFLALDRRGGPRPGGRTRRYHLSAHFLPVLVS
rRNA inh HTS = reduced GFP signal of wild-type E. coli, primary screen, bacterial rRNA inhibitor project, GFP/RFP fluorescence, OD600, single point. E. coli WT GFP vs humanized-ribosome RFP mutants, 24 h; hits give low values; DMSO median 0, no signal -100. GFP signal change (wild-type ribosome), % (concentration not given with the values). 350,000 tested, 1.6% active;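 active = significant combined selectivity score with lowered wild-type GFP, culture density cut under 30%, mutant RFP and density less affected; inactive = any of these conditions unmet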; note: one replicate is shown; some compounds called inactive have numbers as strong as hits
rRNA inh HTS OD600 = recorded beside rRNA inh HTS, whose call it bears; OD600 change, %; measured here: OD600 growth;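 optical density of the mix in the first replicate; 0 = DMSO median and -100 = no signal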
rRNA inh HTS RFP = also measured in rRNA inh HTS; calls as there; RFP signal change, %; measured here: RFP humanized mutant strains;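 first replicate; 0 = DMSO median and -100 = no signal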
* marks the source's active call; other numbers are inactive results; & = joins results of further samples. Some of the compounds tested. The share of hits here may be higher or lower than overall.

Results for C[C@H]1CN([C@@H](C)CO)C(=O)Cc2cc(NS(C)(=O)=O)ccc2O[C@H]1CN(C)Cc1ccc(Oc2ccccc2)cc1 ?
AF4-AF9 inh: 3.5; FGF22 binding: inactive; rRNA inh HTS: 4.3; rRNA inh HTS OD600: -16.3; rRNA inh HTS RFP: 2.8

What do the screens show for `C[C@@H](NC(=O)C[C@H]1CC[C@H](NC(=O)Cc2ccccn2)[C@@H](CO)O1)c1ccccc1`?
AF4-AF9 inh: 1.1; FGF22 binding: inactive; rRNA inh HTS: 1.2; rRNA inh HTS OD600: 1.0; rRNA inh HTS RFP: 0.3

How did C[C@H](CO)N1C[C@H](C)[C@@H](CN(C)C(=O)NC2CCCCC2)Oc2ccc(NC(=O)Nc3ccccc3)cc2CC1=O do in these assays?
AF4-AF9 inh: 1.6; FGF22 binding: inactive; rRNA inh HTS: 1.1; rRNA inh HTS OD600: -8.6; rRNA inh HTS RFP: 0.4

Results for C[C@@H]1CN([C@@H](C)CO)C(=O)Cc2cc(NC(=O)Nc3ccc(F)cc3)ccc2O[C@H]1CN(C)CC1CC1 ?
AF4-AF9 inh: 8.2; FGF22 binding: inactive; rRNA inh HTS: -3.5; rRNA inh HTS OD600: -4.2; rRNA inh HTS RFP: -0.3

What do the screens show for `O=C(OC1CCCC1)c1ccc(Cl)cc1Cl`?
AF4-AF9 inh: -1.2; FGF22 binding: inactive; rRNA inh HTS: 13.3; rRNA inh HTS OD600: 24.8; rRNA inh HTS RFP: 0.9

What do the screens show for `CN(C)C(=O)C[C@H]1C=C[C@H](NC(=O)C2CCC2)[C@@H](CO)O1`?
AF4-AF9 inh: -2.2; FGF22 binding: inactive; rRNA inh HTS: 3.7; rRNA inh HTS OD600: 11.1; rRNA inh HTS RFP: 0.6

What do the screens show for `CC(C)NC(=O)N(C)C[C@@H]1Oc2cc(Br)ccc2S(=O)(=O)N([C@@H](C)CO)C[C@H]1C`?
AF4-AF9 inh: 0.3&-1.4&-3.1; FGF22 binding: inactive; rRNA inh HTS: -2.3&-1.2; rRNA inh HTS OD600: 0.2&4.4; rRNA inh HTS RFP: -1.3&0.8

Results for COc1cc(F)ccc1-c1cc(C(=O)Nc2ccc(C)c(NS(C)(=O)=O)c2)[nH]n1 ?
AF4-AF9 inh: -1.4; FGF22 binding: inactive; rRNA inh HTS: 7.7; rRNA inh HTS OD600: 10.8; rRNA inh HTS RFP: 4.5

Results for O=C1c2ccccc2C(c2nnnn2-c2ccc3c(c2)OCCO3)N1Cc1cccc(F)c1 (configuration not stated) ?
AF4-AF9 inh: -1.8&1.2; FGF22 binding: inactive; rRNA inh HTS: -24.7&-17.1; rRNA inh HTS OD600: -24.4&-7.3; rRNA inh HTS RFP: 6.5&3.2

Results for C[C@H](CO)N1C[C@H](C)[C@H](CN(C)C(=O)Nc2cccc3ccccc23)Oc2ncc(C#CC(C)(C)O)cc2C1=O ?
AF4-AF9 inh: -4.5; FGF22 binding: inactive; rRNA inh HTS: -1.8; rRNA inh HTS OD600: 4.8; rRNA inh HTS RFP: 0.1

How did Nc1nc2c(Br)ccc(Br)c2cc1C(=O)NCc1cccc2ccccc12 do in these assays?
AF4-AF9 inh: 0.1; FGF22 binding: inactive; rRNA inh HTS: 1.1; rRNA inh HTS OD600: 8.4; rRNA inh HTS RFP: 10.6

What do the screens show for `CO[C@@H]1CN(C)C(=O)c2ccc(NC(C)=O)cc2OC[C@H](C)N(C(=O)C2CCOCC2)C[C@H]1C`?
AF4-AF9 inh: -4.6; FGF22 binding: inactive; rRNA inh HTS: -1.2; rRNA inh HTS OD600: 3.1; rRNA inh HTS RFP: -3.0

Results for CO[C@H]1CN(C)C(=O)c2ccc(NC(=O)NC(C)C)cc2OC[C@H](C)N(S(C)(=O)=O)C[C@H]1C ?
AF4-AF9 inh: -7.6; FGF22 binding: inactive; rRNA inh HTS: 1.9; rRNA inh HTS OD600: 0.5; rRNA inh HTS RFP: -0.6

What do the screens show for `COCC(=O)N1C[C@@H]2[C@H](c3ccccc31)[C@H](CO)N2C(=O)NC(C)C`?
AF4-AF9 inh: -2.9; FGF22 binding: inactive; rRNA inh HTS: -0.7; rRNA inh HTS OD600: 15.3; rRNA inh HTS RFP: -4.6

How did CCS(=O)(=O)N1[C@H](C#N)[C@@H](c2ccc(C#CC(C)C)cc2)[C@H]1CO do in these assays?
AF4-AF9 inh: 0.7; FGF22 binding: inactive; rRNA inh HTS: 0.8; rRNA inh HTS OD600: -6.7; rRNA inh HTS RFP: -2.3

What do the screens show for `C[C@@H]1CN([C@H](C)CO)C(=O)c2cc(NC(=O)c3ccncc3)ccc2O[C@H]1CN(C)Cc1ccc(-c2ccccc2)cc1`?
AF4-AF9 inh: 6.8; FGF22 binding: inactive; rRNA inh HTS: -4.1; rRNA inh HTS OD600: -49.5; rRNA inh HTS RFP: 22.9

Results for CCCNC(=O)N(C)C[C@H]1Oc2ncc(-c3ccccc3F)cc2C(=O)N([C@@H](C)CO)C[C@@H]1C ?
AF4-AF9 inh: -0.1; FGF22 binding: inactive; rRNA inh HTS: 6.1; rRNA inh HTS OD600: 9.7; rRNA inh HTS RFP: -3.6

What do the screens show for `C[C@@H]1CCCCO[C@H](CN(C)Cc2ccc(C(=O)O)cc2)[C@H](C)CN([C@H](C)CO)C(=O)c2cc(NS(=O)(=O)c3ccc(Cl)cc3)ccc2O1`?
AF4-AF9 inh: -0.2; FGF22 binding: inactive; rRNA inh HTS: -1.6; rRNA inh HTS OD600: -0.4; rRNA inh HTS RFP: -1.4

How did Cc1ccc(S(=O)(=O)Nc2ccc3c(c2)C(=O)N([C@H](C)CO)C[C@H](C)[C@@H](CN(C)C(=O)NC2CCCCC2)OCCCC[C@H](C)O3)cc1 do in these assays?
AF4-AF9 inh: -1.1; FGF22 binding: inactive; rRNA inh HTS: 0.6; rRNA inh HTS OD600: -2.0; rRNA inh HTS RFP: 2.0

What do the screens show for `NC(c1ccccc1)c1csc(Nc2cc(Oc3ccccc3)ncn2)n1` (configuration not stated)?
AF4-AF9 inh: 11.1; FGF22 binding: inactive; rRNA inh HTS: -52.7; rRNA inh HTS OD600: -76.8; rRNA inh HTS RFP: -22.4

How did CCCC#Cc1ccc2c(c1)O[C@@H](CN(C)C(=O)c1ccccc1)[C@H](C)CN([C@H](C)CO)S2(=O)=O do in these assays?
AF4-AF9 inh: 6.0; FGF22 binding: inactive; rRNA inh HTS: 0.4; rRNA inh HTS OD600: -9.9; rRNA inh HTS RFP: 3.3

How did COc1ccc(C2CC(c3cccc(C(F)(F)F)c3)=NN2c2ccc(S(N)(=O)=O)cc2)cc1 (configuration not stated) do in these assays?
AF4-AF9 inh: -86.2; FGF22 binding: inactive; rRNA inh HTS: 2.7; rRNA inh HTS OD600: 10.8; rRNA inh HTS RFP: 1.7

What do the screens show for `O=C(Nc1ccccc1F)N[C@H]1CC[C@H](CCNC(=O)C2CCCC2)O[C@@H]1CO`?
AF4-AF9 inh: 0.2; FGF22 binding: inactive; rRNA inh HTS: -0.1; rRNA inh HTS OD600: 0.4; rRNA inh HTS RFP: -2.5

Results for O[C@H]1C[C@H](c2ccc(Cl)cc2)N(Cc2cccs2)C[C@@H]1n1cc(C2CC2)nn1 ?
AF4-AF9 inh: -2.7; FGF22 binding: inactive; rRNA inh HTS: 1.6; rRNA inh HTS OD600: -10.7; rRNA inh HTS RFP: 4.4

In the list so far, these have bromine.
What do the screens show for `CC(C)NC(=O)N(C)C[C@@H]1Oc2cc(Br)ccc2S(=O)(=O)N([C@@H](C)CO)C[C@H]1C`?
AF4-AF9 inh: 0.3&-1.4&-3.1; FGF22 binding: inactive; rRNA inh HTS: -2.3&-1.2; rRNA inh HTS OD600: 0.2&4.4; rRNA inh HTS RFP: -1.3&0.8

How did Nc1nc2c(Br)ccc(Br)c2cc1C(=O)NCc1cccc2ccccc12 do in these assays?
AF4-AF9 inh: 0.1; FGF22 binding: inactive; rRNA inh HTS: 1.1; rRNA inh HTS OD600: 8.4; rRNA inh HTS RFP: 10.6

Additional records follow.
How did C[C@@H]1CN([C@@H](C)CO)C(=O)c2cc(NC(=O)C3CCCCC3)ccc2O[C@H]1CN(C)Cc1ccc(-c2ccccc2)cc1 do in these assays?
AF4-AF9 inh: 2.4; FGF22 binding: inactive; rRNA inh HTS: -1.2; rRNA inh HTS OD600: 3.0; rRNA inh HTS RFP: 3.9

Results for O=C(Cc1ccccn1)NCC[C@@H]1CC[C@H](NC(=O)Nc2ccc(Cl)cc2)[C@@H](CO)O1 ?
AF4-AF9 inh: -22.1; FGF22 binding: inactive; rRNA inh HTS: -1.5; rRNA inh HTS OD600: -5.7; rRNA inh HTS RFP: 0.4

Results for COc1ccccc1NC(=O)N[C@H]1CC[C@H](CCNC(=O)c2ccc3c(c2)OCO3)O[C@@H]1CO ?
AF4-AF9 inh: -1.6; FGF22 binding: inactive; rRNA inh HTS: -2.9; rRNA inh HTS OD600: -8.7; rRNA inh HTS RFP: 0.6

What do the screens show for `CC(C)C#Cc1cnc2c(c1)C(=O)N([C@@H](C)CO)C[C@@H](C)[C@@H](CN(C)C(=O)Nc1cc(F)ccc1F)O2`?
AF4-AF9 inh: 0.5; FGF22 binding: inactive; rRNA inh HTS: 1.6; rRNA inh HTS OD600: 0.4; rRNA inh HTS RFP: -2.0

How did CCOc1ccccc1C(=O)NC(C(=O)N(C)Cc1ccc2c(c1)OCO2)C(C)C (configuration not stated) do in these assays?
AF4-AF9 inh: 1.7; FGF22 binding: inactive; rRNA inh HTS: -33.0; rRNA inh HTS OD600: -49.5; rRNA inh HTS RFP: 3.1

What do the screens show for `C[C@@H]1CN([C@H](C)CO)C(=O)c2cc(C#Cc3cccc(F)c3)cnc2O[C@H]1CN(C)Cc1ccccn1`?
AF4-AF9 inh: -4.2; FGF22 binding: inactive; rRNA inh HTS: 5.1; rRNA inh HTS OD600: 13.9; rRNA inh HTS RFP: -0.9

Results for Cc1noc(C)c1NC(=O)Nc1ccc2c(c1)C(=O)N([C@H](C)CO)C[C@H](C)[C@@H](CN(C)Cc1ccc(Oc3ccccc3)cc1)O2 ?
AF4-AF9 inh: 10.5; FGF22 binding: inactive; rRNA inh HTS: 3.4; rRNA inh HTS OD600: -2.6; rRNA inh HTS RFP: -1.6

Results for CCC(=O)N(C)C[C@@H]1Oc2cc(-c3cccnc3)ccc2S(=O)(=O)N([C@@H](C)CO)C[C@H]1C ?
AF4-AF9 inh: -0.1; FGF22 binding: inactive; rRNA inh HTS: 1.9; rRNA inh HTS OD600: 6.4; rRNA inh HTS RFP: -1.3

Results for C/C=C/c1ccc2c(c1)O[C@H](CN(C)C(=O)c1ccc3c(c1)OCO3)[C@@H](C)CN([C@H](C)CO)S2(=O)=O ?
AF4-AF9 inh: 2.7; FGF22 binding: inactive; rRNA inh HTS: -5.2; rRNA inh HTS OD600: -10.3; rRNA inh HTS RFP: -2.4

How did COc1ccccc1CN(C)C[C@@H]1OCc2ccccc2-c2ccccc2C(=O)N([C@H](C)CO)C[C@@H]1C do in these assays?
AF4-AF9 inh: -2.0; FGF22 binding: inactive; rRNA inh HTS: -0.9; rRNA inh HTS OD600: -3.4; rRNA inh HTS RFP: -1.3

Results for CCCNC(=O)[C@@H]1[C@@H](CO)[C@@H]2Cn3c(ccc(/C=C/c4ccccc4)c3=O)[C@H]1N2C(=O)c1ccccc1 ?
AF4-AF9 inh: -5.6; FGF22 binding: inactive; rRNA inh HTS: -4.3; rRNA inh HTS OD600: -11.3; rRNA inh HTS RFP: 5.5

What do the screens show for `C[C@@H]1CN([C@@H](C)CO)C(=O)Cc2cc(NC(=O)c3ccncc3)ccc2O[C@@H]1CN(C)Cc1ccc(C(=O)O)cc1`?
AF4-AF9 inh: -4.0; FGF22 binding: inactive; rRNA inh HTS: 2.9; rRNA inh HTS OD600: -0.1; rRNA inh HTS RFP: -0.7

What do the screens show for `C[C@H](CO)N1C[C@H](C)[C@H](CN(C)Cc2ccc(Oc3ccccc3)cc2)Oc2ccc(NS(=O)(=O)c3cccs3)cc2C1=O`?
AF4-AF9 inh: 4.7; FGF22 binding: inactive; rRNA inh HTS: -7.2; rRNA inh HTS OD600: -45.1; rRNA inh HTS RFP: 14.4

What do the screens show for `COc1cccc(-c2ccccc2[C@H]2[C@@H](C#N)N(C(=O)c3ccccn3)[C@@H]2CO)c1`?
AF4-AF9 inh: -1.0; FGF22 binding: inactive; rRNA inh HTS: -7.8; rRNA inh HTS OD600: -15.1; rRNA inh HTS RFP: 2.2

How did CC(C)C[C@H]1COc2cc(NCCO)ccc2S(=O)(=O)N1 do in these assays?
AF4-AF9 inh: -2.1; FGF22 binding: inactive; rRNA inh HTS: 17.2; rRNA inh HTS OD600: 19.5; rRNA inh HTS RFP: 2.2

What do the screens show for `CCC(=O)N1C[C@H](C)[C@@H](OC)CN(C)C(=O)c2cc(NC(=O)C3CC3)ccc2OC[C@H]1C`?
AF4-AF9 inh: -1.7; FGF22 binding: inactive; rRNA inh HTS: -0.5; rRNA inh HTS OD600: -3.5; rRNA inh HTS RFP: -1.7
